AmpC inh no det – Promiscuous and Specific Inhibitors of AmpC Beta-Lactamase (assay without detergent). 71,000 compounds, 1.8% hits. Potency, µM (highest dose often 28.7 µM), for the others: at the top dose activity change, negative = inhibition. P00811. AmpC nitrocefin hydrolysis, absorbance 480 nm, no detergent; potencies from a single point are estimates; active = falling curve, for most hits resting on a single point; inconclusive = weak or doubtful change; inactive = flat or rising curve; further: % of control where 0% means no effect; about half of the hits show no inhibition at the top dose; a quarter of the inactives give rising signals
Target sequence (P00811 whole entry, looked up): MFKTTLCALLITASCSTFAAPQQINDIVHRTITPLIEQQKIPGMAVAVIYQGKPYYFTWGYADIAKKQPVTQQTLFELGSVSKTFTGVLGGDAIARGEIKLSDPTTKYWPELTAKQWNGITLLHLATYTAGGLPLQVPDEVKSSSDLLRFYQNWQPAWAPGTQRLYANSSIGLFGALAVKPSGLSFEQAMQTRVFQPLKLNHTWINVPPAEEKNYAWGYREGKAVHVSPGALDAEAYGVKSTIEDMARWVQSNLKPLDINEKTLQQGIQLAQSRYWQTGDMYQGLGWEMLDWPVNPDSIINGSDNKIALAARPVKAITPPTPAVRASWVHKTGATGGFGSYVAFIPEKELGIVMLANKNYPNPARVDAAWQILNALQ
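AmpC, 20 mM phosphate pH 7.0; 15 min cpd preinc, RT; start with nitrocefin (800 uM stock); A480 kinetic read, 20 s intervals, 4 min. No-enzyme wells = negative control.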
Numbers without * were called inactive; [ ] = remark or other dose. Potency means the concentration at half of the fitted maximal effect. This is a subset; count on the stated rates, not on these rows.

SMILES	AmpC inh no det
COc1ccc(-c2coc3ccc(O[C@@H]4O[C@@H](COC(C)=O)[C@@H](OC(C)=O)[C@@H](OC(C)=O)[C@H]4OC(C)=O)cc3c2=O)cc1	67.1%
O=C(CCSc1nnc(-c2ccco2)o1)Nc1ccc(Cl)cc1	1.1%
NC(=NCCC[C@@H](N)C(=O)O)N[N+](=O)[O-]	7.4%
CCN1CCN(C(=O)CN(c2ccccc2C)S(C)(=O)=O)CC1	-0.6%
Cc1ccc(N(C=NC#N)CC(=O)N2CCN(c3ccccc3)CC2)cc1	17.9%
O=C(CSc1nc2cccnc2n1Cc1ccccc1)NCc1ccco1	12.1%
COc1ccc(CN(C2CCCC2)S(=O)(=O)c2ccc(-n3cnnn3)cc2)cc1OC	63.1%
Cc1cc(C)n(CC(=O)NC2CCCCC2)n1	-6.2%
O=C(OCn1nnc2ccccc2c1=O)c1ccc2c(=O)n3c(nc2c1)CCC3	74.6%
CCC(C)[C@H](NC(=O)Nc1ccc2c(c1)OCCO2)C(=O)O (stereo partly specified)	-1.3%
Cc1cc(NS(=O)(=O)c2ccc(Nc3nc(-c4sc(N)nc4C)cs3)cc2)no1	-18.8%
COC(=O)c1ccccc1S(=O)(=O)Nc1ccc2cn[nH]c2c1	-12.5%
COC(=O)c1ccc(C(NC(=O)OCc2ccccc2)/C(=C/[C@@H](C)C(=O)NCCF)c2cccnc2)cc1 (stereo partly specified)	111.2%
COc1cccc(CN(Cc2cccnc2)S(=O)(=O)c2ccc(-n3cnnn3)c(C)c2)c1	84.4%
CCCc1cc(Nc2cccc(OCC)c2)n2ncnc2n1	27.4%
c1ccc2c(c1)ncn2Cc1nnc2sc(-c3ccc4c(c3)OCO4)nn12	18.7%
COc1ccc(OC(=O)c2cccc(S(=O)(=O)N3CCCC3)c2)cc1	14.0%
C(=C\c1ccco1)/C=N/n1cnnc1	6.9%
O=C(CN1CCOCC1)N1CCN(C(=O)CN2CCOCC2)CC1	2.6%
COC(=O)c1ccc(C(=O)OC)c(NC(=O)CCC(=O)O)c1	-13.0%
COc1ccc(C(=O)CSc2nc(SC)ns2)cc1OC	44.6%
O=C(CSc1nnc(-c2ccc(Br)cc2)n1C1CCCCC1)N1CCCC1	104.1%
O=C(Cn1c(C2CC2)nc2ccccc2c1=O)Nc1ccc(Br)cc1	-14.4%
O=C(Nc1ccc2oc(-c3ccccc3F)nc2c1)c1ccc2c(c1)OCCO2	33.7%
CC1CC1C(=O)OCc1cc(=O)n2cc(Br)ccc2n1 (stereo unspecified)	8.0%

Carrying on.
SMILES	AmpC inh no det
COC(=O)Cc1c[nH]c2ccc(OCC(O)CNC(C)C)cc12 (stereo unspecified)	-13.0%
Cc1ccccc1-c1nnc(SCc2ccccc2)o1	-6.6%
CC(C)c1ccc(OCc2ccc(C(=O)N3CCN(c4ccccn4)CC3)cc2)cc1	84.4%
CCOC(=O)c1cnc(SCC(=O)N2CCN(C(=O)c3ccco3)CC2)nc1N	8.1%
COc1ccc(Nc2ncccc2C(=O)Nc2ccccc2)cc1	-2.3%
CC1CCCCN1C(=O)N[C@@H](Cc1ccccc1)C(=O)O (stereo partly specified)	-7.8%
Cc1noc(C)c1COC(=O)c1ccccc1Oc1ccccc1	24.3%
CCOCCn1c(=O)c2c(nc3n2CCN3c2ccc(CC)cc2)n(C)c1=O	144.0%
Cc1noc(C)c1C(=O)N1CCC[C@@]2(CCN(C(=O)NC(C)C)C2)C1	0.8%
CCCCc1cc(=O)oc2cc(C)c(CN3CCCC3)c(O)c12	7.8%
CCCn1c(CN(Cc2ccccc2)Cc2ccccc2)nc2c1c(=O)n(C)c(=O)n2C	0.3%
CCOC(=O)c1c(C)oc2c(CN3CCN(C)CC3)c(Br)c(OC)c(O)c12	37.0%
CCOC(=O)c1[nH]c(C)c(C(=O)Nc2cc(Cl)ccc2C)c1C	3.5%
CCOC(=O)C(C)n1cnc2c(nnn2-c2ccc(C)cc2)c1=O (stereo unspecified)	24.4%
CCc1ccc(C(C)NC(=O)c2cc(C)oc2C)cc1 (stereo unspecified)	9.7%
O=c1cc(CSc2ccc(Cl)cc2)nc(N2CCOCC2)[nH]1	9.6%
CC(C)n1c(CCCO)nc2ccccc21	-2.3%
CCCCOC(=O)c1cc2c(cn1)[nH]c1ccccc12	126.2%
COCCNC(=O)C(c1ccco1)N(C(=O)Cn1nnc2ccccc21)c1ccc(C)cc1C (stereo unspecified)	78.9%
COc1c(C)cc(Br)cc1C(=O)NCc1cccnc1	18.5%
CC1CCC(NC(=O)C2(C)CCC(=O)N2Cc2cccnc2)CC1 (stereo unspecified)	3.98µM*[single pt active]
C=CCn1c(SCC(=O)Nc2cc(C)cc(C)c2)nnc1-c1cnccn1	70.4%
Nc1nnc(C2CCCC2)s1	-1.5%
N#CC1=C(N)Oc2c(c(=O)oc3ccccc23)C1c1cccnc1 (stereo unspecified)	-8.9%
O=C(CN1CCN(C(=O)c2ccco2)CC1)Nc1ccc2c(c1)OCCO2	2.6%

Later entries.
SMILES	AmpC inh no det
CCOC(=O)c1cnc(SCC(=O)Nc2ccc(NC(=O)CC)c(OC)c2)nc1N	17.3%
Cc1cccc(OCCCCc2c(C)n[nH]c2C)c1C	67.0%
O=C(NC1CCCCC1)n1c(=O)oc2ccc(Cl)cc21	6.6%
CN1CCN(CC(=O)N2c3ccccc3C(C)(c3ccccc3)CC2(C)C)CC1 (stereo unspecified)	55.0%
O=C(CSc1cccc[n+]1[O-])c1cc2ccccc2o1	-6.8%
CCOc1ccccc1NC(=O)N1CCC(NC(=O)c2cccc(C)c2)CC1	15.7%
O=C(Cc1cccs1)Nc1ccc(NC(=O)c2ccco2)cc1	4.0%
C=CCn1c(O)c(C(CC)=Nc2ccc(N(CC)CC)cc2)c(=O)[nH]c1=O	-8.4%
Cc1ccc(N2CC(C(=O)Nc3ccc4c(c3)OCO4)CC2=O)cc1 (stereo unspecified)	4.9%
CCN(CC)CC(=O)Nc1c(C)cc(C(C)(C)C)cc1C	-10.1%
COc1ccc(-c2nnc(SCC(=O)Nc3cc(F)ccc3C)o2)cc1	22.1%
O=C(Cn1cnc2c(nnn2Cc2ccc(Cl)cc2)c1=O)NCC1CCCO1 (stereo unspecified)	20.8%
COc1ccccc1-n1c(C)nnc1SCC(=O)Nc1cc(C)cc(C)c1	50.4%
CC[C@H](C)C(=O)O[C@H]1CCC=C2C=C[C@H](C)[C@H](CC[C@@H]3C[C@H](O)CC(=O)O3)[C@H]21	147.3%
CC1=C(C(N)=O)C(c2ccccn2)n2nc(SCc3ccccc3)nc2N1 (stereo unspecified)	3.1%
CC1Cc2ccccc2N1C(=O)CSc1nnc(Cn2nnc3ccccc32)n1C (stereo unspecified)	43.1%
Cc1ccc(C(C)C)c(OCc2nnc(SCC(=O)Nc3ncc(C)s3)n2C)c1	24.2%
CC(=O)NC(CCS(C)(=O)=O)C(=O)Nc1ccc(F)cc1Cl (stereo unspecified)	-7.1%
CCOc1ccccc1C(=O)Nc1nncs1	-11.1%
CC(C)c1ccc(C(=O)Nc2ccc(N3CCOCC3)cc2)cc1	12.7%
Cc1cccc(C)c1O	-18.3%
O=C(O)CCCCCNCc1ccncc1	5.4%
COc1ccc(Oc2ncc3nc(-c4ccc(Cl)cc4)c(=O)n(C[C@H]4CCCO4)c3n2)cc1	-4.5%
N#Cc1sc2nc(-c3ccccc3)cc(-c3ccco3)c2c1N	6.31µM*
Brc1ccccc1-c1nc(-c2ccccc2)no1	6.7%

Two compounds picked at random from the list so far, as already listed:
SMILES	AmpC inh no det
O=C(CCSc1nnc(-c2ccco2)o1)Nc1ccc(Cl)cc1	1.1%
O=C(Nc1ccc2oc(-c3ccccc3F)nc2c1)c1ccc2c(c1)OCCO2	33.7%

An excerpt of these results, with each value named:
CC(C)c1ccc(C(=O)Nc2ccc(N3CCOCC3)cc2)cc1
  AmpC inh no det = 12.7%
Cc1cccc(C)c1O
  AmpC inh no det = -18.3%
O=C(O)CCCCCNCc1ccncc1
  AmpC inh no det = 5.4%
COc1ccc(Oc2ncc3nc(-c4ccc(Cl)cc4)c(=O)n(C[C@H]4CCCO4)c3n2)cc1
  AmpC inh no det = -4.5%

New compounds follow:
SMILES	AmpC inh no det
O=C1CC(N2CCOCC2)C(=O)N1CCc1ccccc1 (stereo unspecified)	1.8%
Cc1cccc(OCc2nc(C#N)c(N3CC(C)CC(C)C3)o2)c1 (stereo unspecified)	3.2%
COc1cc(C2c3c(oc4ccccc4c3=O)C(=O)N2Cc2cccnc2)cc(OC)c1OC (stereo unspecified)	22.0%
Cc1cc(N2CCOCC2)c2c(N)c(C)cc(C)c2n1	-15.6%
Cc1nc(CNS(=O)(=O)c2cccc(F)c2)cs1	-5.6%
O=C(CSc1nc2c(c(=O)n1-c1ccc(Cl)cc1)SCC2)Nc1nccs1	-7.3%
CCOCCN(C=O)c1cccc(OC)c1	9.6%
Cc1nn(-c2ccccc2)c(C)c1C(=O)OCC(=O)Nc1ccc2c(c1)OCO2	5.9%
COc1cccc(CCC(=O)O)c1OC	-4.1%
CS(=O)(=O)N1CCC2(CC1)CN(c1ccc(-c3ccccc3)cc1)C2	-9.3%
CCN=c1scc(C)n1/N=C/c1ccsc1	23.0%
NC(=O)CSCc1ccc(Br)cc1	-6.4%
O=C(CSc1nnnn1-c1ccc2c(c1)CCC2)Nc1ccc2c(c1)OCCO2	-13.8%
CCn1c(=O)cc(SCC(=O)N2CCN(C3CCCCC3)CC2)c2ccccc21	107.1%
COc1cccc(-c2ccc3ncnc(NCc4ccccc4OC)c3c2)c1	1.26µM*
O=S(=O)(c1ccc(Br)cc1)N1CCN(c2cc(-c3ccccc3)nc3ncnn23)CC1	39.8%
CCOC(=O)C1CCCN(CC(=O)/C=C2/N(C)c3ccccc3C2(C)C)C1 (stereo unspecified)	37.9%
CCOC(=O)c1ccc(NC(=O)N2CCN(CCc3ccccc3)CC2)cc1	7.0%
c1ccc(Nc2ncnc3c2oc2ccccc23)cc1	-9.4%
O=C(O)C[C@@H]1CCCc2ccccc2[C@H]1O	-13.4%
CC(=O)N1CCC2(CCCN(Cc3ccc(C#N)cc3)C2)CC1	33.0%
CCSc1nnc([C@@H]2CCCN2C(=O)OC(C)(C)C)o1	11.7%
CCCCCCN(C(=O)CCCCCN1C(=O)NC(c2ccccc2-c2ccccc2)C(C(=O)OCc2ccccc2)=C1C)C(C(=O)NCCCC)c1ccc(OCC(=O)OC)c(C(=O)OC)c1 (stereo unspecified)	76.6%
Fc1cccc(Cl)c1-c1nnc2ccc(N3CCOCC3)nn12	22.5%
O=C(NCC1CC1)C1CCCN(S(=O)(=O)c2ccc(-n3cnnn3)cc2)C1 (stereo unspecified)	-5.2%

Continued, overlapping the part above by 4 compounds.
SMILES	AmpC inh no det
CCSc1nnc([C@@H]2CCCN2C(=O)OC(C)(C)C)o1	11.7%
CCCCCCN(C(=O)CCCCCN1C(=O)NC(c2ccccc2-c2ccccc2)C(C(=O)OCc2ccccc2)=C1C)C(C(=O)NCCCC)c1ccc(OCC(=O)OC)c(C(=O)OC)c1 (stereo unspecified)	76.6%
Fc1cccc(Cl)c1-c1nnc2ccc(N3CCOCC3)nn12	22.5%
O=C(NCC1CC1)C1CCCN(S(=O)(=O)c2ccc(-n3cnnn3)cc2)C1 (stereo unspecified)	-5.2%
C=CCSc1nnc(NC(=O)CSc2nnc(C)s2)s1	4.7%
C/C=C/c1ccc(O)c(OC)c1	-6.0%
N#Cc1cccc(NC(=O)N2CCCC3(CCN(S(=O)(=O)c4ccccc4)CC3)C2)c1	23.8%
CCOc1ccc(C2CC(c3cccc(Cl)c3)n3nc(N)nc3N2)cc1 (stereo unspecified)	34.1%
CC(C)Oc1ccc(C2c3c(oc4ccccc4c3=O)C(=O)N2CCCN2CCOCC2)cc1 (stereo unspecified)	126.0%
CCOC(=O)Cn1c(=O)oc2cc(S(=O)(=O)Nc3ccc(N(CC)CC)cc3C)ccc21	2.4%
O=C(NCc1cccnc1)c1ccc(Cl)c(Cl)c1	12.9%
CC(C)Cn1cnc2c(SCc3ccc(Cl)cc3Cl)nc(N)nc21	-6.8%[5.75 µM]
CCNC(=O)CSc1nc2cc(OC)c(OC)cc2c(=O)n1CCC1=CCCCC1	37.4%
O=C(Nc1ccc(Br)cc1)C1CCCN1S(=O)(=O)c1cccs1 (stereo unspecified)	9.1%
CCCS(=O)(=O)N1CCCC(C(=O)NCCCOC(C)C)C1 (stereo unspecified)	-6.5%
CCOC(=O)C1CCCN(Cc2nc(N)nc(Nc3ccc(OC)cc3)n2)C1 (stereo unspecified)	14.4%
O=C(COc1ccc(Br)cc1CO)Nc1ccc(F)cc1	-12.3%
COc1ccc(CCNC(=O)C2CCN(c3nn4c(=O)cc(C)nc4s3)CC2)cc1OC	47.9%
CSc1nc2ccc(S(=O)(=O)N3CCOCC3)cc2s1	18.8%
Cc1ccc(-c2noc(-c3ccccc3C(=O)N3CCCC3)n2)cc1	127.3%
Clc1cc(NCc2cccs2)ccc1N1CCOCC1	8.5%
COc1cc2c(cc1OC)C1=C(C#N)CN(CC(=O)O)CN1CC2	68.7%
CCN=C(NCC)SC1CC(=O)N(c2cccc(OC)c2)C1=O (stereo unspecified)	17.7%
COc1cccc(C2=NOC(C(=O)Nc3cccc(C(C)=O)c3)C2)c1 (stereo unspecified)	9.5%
O=C(CSCc1ccc(F)cc1)NC1CCCC1	-7.7%
O=C(NCCCN1CCCCCC1)[C@@H](c1ccccc1)C1CCCCC1	48.5%
CCS(=O)(=O)c1nc2ccccc2n1Cc1ccccc1Cl	47.8%
O=[N+]([O-])c1ccc(CCO)cc1	-5.0%
CN(C)C(=O)c1ccc(-c2ccc3ncnc(N(C)Cc4ccco4)c3c2)cc1	50.9%
COc1ccccc1Nc1nc(N)nc(CSCCO)n1	-8.6%
CCOC(=O)Cn1c2c(c(=N)c3c1CCC3)CCC2	-6.0%
Cc1c(C(=O)O)sc2ncnc(N3CCCCC3C)c12 (stereo unspecified)	-9.3%
Cc1cc(NC(=O)CSc2ccc3nnc(-c4ccc(F)cc4)n3n2)no1	-15.8%

Compound activity deposited in PubChem BioAssay by National Center for Advancing Translational Sciences (NCATS).
